Bst PK mod = alters activity of Bacillus stearothermophilus pyruvate kinase; AID 361; partly purified Bacillus stearothermophilus pyruvate kinase, luminescence ATP production; ribose 5-phosphate activator present at AC10; 51,000 tested, 1.2% active; Potency, µM; in the data active means potency below about 11 µM; inconclusive means mostly about 12 µM to 25 µM; inactive means weaker than that;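 the screen sought inhibitors and activators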;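 also: potency is read from the fitted curve at half-maximal effect; scaled between full activation by ribose 5 phosphate and full inhibition by luteolin; about four in five hits inhibit and the cells do not say which; series up to 57 µM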
YjeE inh = displaces an ADP probe from E. coli YjeE (TsaE). Potency, µM. purified YjeE, fluorescence polarisation of a bound ADP probe. AID 605. P0AF67. 71,000 tested, 0.05% active; active = well fitted falling curve; inconclusive = weaker or top-dose-only fall, or a rising curve; inactive = flat or poorly fitted curve;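 also: top concentration of the series not given in the record; excess ADP was the control for the full effect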
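Fluorescence polarization of a BODIPY Texas Red–ADP probe (2 uM) bound to purified YjeE (10 uM) was read after 15 min room-temperature incubation with compounds. Loss of polarization marks inhibitors; ADP serves as titrated control.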
Starred values were filed as active, the others as inactive; i = inactive; ? = inconclusive; nt = no result given. Some of the compounds tested; count on the stated rates, not on these rows.

compound | YjeE inh | Bst PK mod
Cc1ccc(CN2CCN(CC(=O)NCc3ccc(Cl)cc3)C2=O)cc1 | i | >57
O=C(CCC1CCCC1)Nc1ccc(Br)cn1 | i | >57
Cc1cccc(OCC(=O)Nc2cccc(-c3nnc(-c4ccccc4)o3)c2)c1C | i | >57
O=C(OCc1cc2ccccc2[nH]c1=O)C1CCCCC1 | i | >57
O=C(O)CC[C@@H](C(=O)O)N1C(=O)c2ccccc2C1=O | i | nt
Cc1noc(C)c1C(=O)N1CCC2(CCCN(c3ncccn3)C2)CC1 | i | nt
Cc1cccc(CNc2nc(-c3c(C)noc3C)nc3ccccc23)c1 | i | nt
c1ccc(C(Cc2nc(-c3cccnc3)no2)c2ccccc2)cc1 | i | nt
CCC(=NCCN1CCNCC1)C1=C(O)CC(C)(C)CC1=O | i | >57
CCOC(=O)c1ccc2c(c1)C1C=CCC1C(C(=O)O)N2 (stereo not given) | i | nt
O=S(=O)(Cc1ccccc1)N1CCN(Cc2ccccc2)CC1 | i | >57
CCOC(=O)N1CCC(NC(=O)c2cnn3c2NC(c2ccco2)CC3C(F)(F)F)CC1 (stereo not given) | i | >57
COc1cc(C(=O)OCCCN2CCCN(CCCOC(=O)c3cc(OC)c(OC)c(OC)c3)CC2)cc(OC)c1OC | i | nt
COc1ccc(C2C(C(=O)N3CCN(C)CC3)c3ccccc3C(=O)N2C2CCCCC2)cc1 (stereo not given) | i | >57
Nc1nnc(SCc2cccc(C(F)(F)F)c2)s1 | i | nt
O=C(C1CCN(S(=O)(=O)c2cccnc2)CC1)N1CCN(c2ccccc2Cl)CC1 | i | >57
O=c1cc[nH]c2cc(C(F)(F)F)ccc12 | i | >57
CCOC(=O)CC(C#N)c1c[nH]c2ccccc12 (stereo not given) | i | >57
Cc1noc(C(=O)NCc2cccnc2)c1Cl | i | nt
O=C1CN(C(=O)c2cnccn2)c2ccccc2N1 | i | >57
C=CCn1c(SCC(=O)NCC(=O)OCC)nnc1-c1cccc(OC)c1 | i | >57
O=C(CSc1nnc(-c2ccccn2)n1Cc1ccccc1)NC1CCCC1 | i | >57
Cc1nn(CC(=O)NCCN2CCOCC2)c(=O)c2ccccc12 | nt | >26
O=S(=O)(Nc1nccs1)c1ccc(NS(=O)(=O)c2cccs2)cc1 | i | >57

Whole records as entered above. Screens in order: YjeE inh	Bst PK mod
O=C1CN(C(=O)c2cnccn2)c2ccccc2N1 is listed with i	>57
Cc1nn(CC(=O)NCCN2CCOCC2)c(=O)c2ccccc12 is listed with nt	>26
O=S(=O)(Nc1nccs1)c1ccc(NS(=O)(=O)c2cccs2)cc1 is listed with i	>57
C=CCn1c(SCC(=O)NCC(=O)OCC)nnc1-c1cccc(OC)c1 is listed with i	>57
O=C(CSc1nnc(-c2ccccn2)n1Cc1ccccc1)NC1CCCC1 is listed with i	>57

(next part)
compound | YjeE inh | Bst PK mod
COc1cc2c(cc1OC)C(c1ccc(N)cc1)=NNC(=O)C2 | i | nt
CCN(CC)C(=O)CSc1nnc(CCNC(=O)OC(C)(C)C)o1 | i | >57
CCCCCCCCCCCCCC(=O)O[C@H](CC(=O)O)C[N+](C)(C)C | i | nt
Cn1c(=O)oc2cc(S(=O)(=O)N3CCC(C(=O)N4CCN(c5ccccc5)CC4)CC3)ccc21 | i | nt
CCSc1ccccc1C(=O)Nc1cccc(OC)c1 | i | >57
COCc1cc(=O)n2[nH]c(C)cc2n1 | i | >57
Cc1cccc(C)c1N1CCN(S(=O)(=O)c2ccc(F)cc2)CC1 | i | >57
CCOc1cc(N2CCOCC2)c(OCC)cc1NC(=O)Cc1cn2ccsc2n1 | i | >57
NCCNC(=S)S | i | nt
CC12CCC(C(=O)NCc3ccco3)(OC1=O)C2(C)C (stereo not given) | i | nt
CN(C)S(=O)(=O)Nc1ccc(NS(=O)(=O)N(C)C)c(S(=O)(=O)c2ccccc2)c1 | nt | >26
CCCn1cnc2cc(NCc3cccc(OC)c3O)ccc21 | i | nt
CCc1nc2nc(C)cc(Nc3cccc(C(F)(F)F)c3)n2n1 | i | >57
CCOC(=O)C1=C(C)OC(N)=C(C(=O)OCC)C1c1ccncc1 (stereo not given) | i | nt
COc1cccc(CN2CCN(C(=O)c3cccs3)CC2)c1OC | i | nt
O=C(CN1CCCCC1)N1CCN(C(=O)CN2CCCCC2)CC1 | i | nt
O=C(NCCc1ccccc1)C1c2ccccc2C(=O)N1C1CC1 (stereo not given) | i | >57
COC(=O)C(C#N)C(c1cccnc1)c1c(C)[nH][nH]c1=O (stereo not given) | i | >57
c1ccc(N2CCN(c3nc4cc5c(cc4s3)OCO5)CC2)cc1 | i | nt
O=C(NCC(=O)N(c1ccc2c(c1)OCO2)C(C(=O)NC1CCCC1)c1cccs1)c1ccco1 (stereo not given) | i | >57
O=C1C(c2ccccn2)=[N+]([O-])c2ccccc21 | i | nt
O=S(=O)(c1cc(C(F)(F)F)ccc1Cl)N1CCCCCC1 | i | >57
CC(C)c1c(O)nc(SCC(=O)Nc2ccc3c(c2)CCC3)[nH]c1=O | i | >57
CCc1c(C)c2ccc(OCC(=O)OC(C)C)c(C)c2oc1=O | i | >57
O=C1C(=O)N(Cc2cccnc2)C(c2ccccn2)/C1=C(/O)c1ccccc1 (stereo not given) | nt | >26
CCCCC(=O)Nc1ccc(NC(=O)C2CC2)cn1 | i | >57
Cn1ccc(C(=O)OCC(=O)c2ccccc2)n1 | i | nt
Cc1ccc(-c2nc3ccccc3[nH]2)cc1NC(=O)c1ccco1 | i | i
Cc1c(NC(=O)Nc2cccc(Cl)c2)c(=O)n(-c2ccccc2)n1C | i | nt
CCc1nnc(NC(=O)CCC(=O)N2CCN(C3CCCCC3)CC2)s1 | i | >57
CCN1CCN(C(=O)CCCCCn2c(=O)[nH]c3cc(C(=O)OC)ccc3c2=O)CC1 | i | >57
COc1cc(NC(=O)NCCN2CCN(c3ccc(Cl)cc3)CC2)ccc1C | i | >57
CCCCn1c(NCCO)nc2ccccc21 | i | nt
COc1cccc(-c2nnc3sc(-c4ccccn4)nn23)c1 | i | i
CCCc1cc(C(N)=O)c(NC(=O)c2ccoc2C)s1 | i | nt
Cn1c(SCCCC(=O)c2ccccc2)nnc1-c1ccncc1 | i | >57
N=C(N)SCCON1C(=O)c2ccccc2C1=O | i | nt
CS(=O)(=O)NCc1ccc(C(=O)NCCOc2ccccc2)cc1 | i | >11
Cc1sc2ncnc(SCC(=O)NC(=O)NCc3ccco3)c2c1C | i | >57
CCCCCn1c(N2CCN(c3cccc(Cl)c3)CC2)nc2c1c(=O)[nH]c(=O)n2C | i | >57
COc1ccc2nc(NCCCNC(=O)c3cc(OC)c(OC)c(OC)c3)c(C#N)cc2c1 | i | >57
CCOC(=O)c1cccc(NC(=O)Nc2cc(OC)ccc2OC)c1 | i | >57
CCCc1cc(C(=O)Nc2nccs2)cs1 | i | ?
CCOC(=O)CSc1nc2sc3c(c2c(=O)[nH]1)CCCC3 | i | nt
O=S(=O)(c1ccc(Br)s1)N1CCN(c2ccccc2)CC1 | i | >57
CC(C)NC(=O)N1CC[C@@]2(CCCN(C(=O)c3cccc(F)c3)C2)C1 | i | nt
NC(=O)c1ncn([C@@H]2O[C@H](CO)[C@@H](O)[C@H]2O)n1 | i | nt
Cc1cc(NC(=O)COC(=O)CCC(=O)c2ccc(F)cc2)no1 | i | >57
CCOC(=O)c1cc(-c2ccncc2)nc2c1c(C)nn2-c1ccccn1 | i | nt
COc1cc(C(=O)NC2CC3CCCC(C2)N3CC(=O)Nc2ccccc2)cc(OC)c1OC (stereo not given) | i | >57
O=C(NCCc1c[nH]c2ccccc12)c1cc(S(=O)(=O)N2CCCCC2)ccc1N1CCOCC1 | i | >57
Cn1cc(-c2nc3cnc(N4CCNCC4)nc3n(CCc3ccccc3)c2=O)c2ccccc21 | i | nt
O=C(O)c1ccc(CSCc2ccccc2F)o1 | i | >57
Cc1cc(NC(=O)COC(=O)CCCOc2ccc(Cl)cc2C)no1 | i | >57
Cn1c(SCC(=O)NCc2ccco2)nc2ccccc2c1=O | i | >57
CCC1CCCCN1C(=O)COc1cc(=O)n(C)c2ccccc12 (stereo not given) | i | nt

Other results follow.
compound | YjeE inh | Bst PK mod
O=C(O)c1cnn2c1NC(c1ccc(F)cc1)CC2C(F)(F)F (stereo not given) | i | >57
CCn1c(COc2ccc(C)cc2)nnc1SCC(=O)Nc1cc(OC)ccc1OC | i | >57
O=C(/C=C\Nc1ccccn1)c1ccccc1 | i | nt
Cn1nccc1C(=O)Nn1cnnc1 | i | >57
COc1ccc(C2=NOC(C(=O)NC(C)(C)C)C2)cc1 (stereo not given) | i | >57
Cc1cc(NC(=O)CSc2ccc3nnc(-c4ccccc4)n3n2)no1 | i | >57
CCn1c(SCC(=O)Nc2ccc(OCc3ccccc3)cc2)nnc1-c1ccco1 | i | >57
CC(=O)Nc1ccc(N/C=C/C(=O)C(C)(C)C)cc1 | i | nt
Cc1nc(NCc2ccc3c(c2)OCO3)c2oc3ccccc3c2n1 | i | >57
Cc1cc(C)nc(NC(=O)CSc2nn(C)c(=S)s2)n1 | i | >57
C1=C(N2CCOCC2)/C(=C/c2nc3ccccc3[nH]2)CC1 | i | nt
CCOC(=O)N1CCC(NC(=O)c2cc(C(=O)Nc3cccc(OC)c3)ccc2CO)CC1 | i | >57
Brc1ccccc1-c1nnc(CSc2nnnn2-c2ccccc2)o1 | i | >11
CCNC(=O)CCc1nc(-c2ccc(C(C)(C)C)cc2)no1 | i | ?
CCOC(=O)c1sc(NC(=O)c2ccc(C)o2)nc1C | i | nt
O=C(c1nc2ncccn2n1)N1CCc2ccccc2C1 | i | >57
CCCN(CCC)C(=O)CCS(=O)(=O)c1cccc2nsnc12 | i | >57
CSc1nc(SCC(=O)NCc2ccco2)c2c3c(sc2n1)CN(C)CC3 | i | >57
CSc1ncc(C(=O)O)n1-c1ccc(F)cc1 | i | >57
Cc1cccc(N2C(=O)CC(N(O)c3ccccc3)C2=O)c1 (stereo not given) | i | >57
CCOC(=O)C1CC=C(Cl)CC1C(=O)Nc1nccs1 (stereo not given) | i | >57
O=S1(=O)[C@H]([C@H]2CC3c4ccccc4C2c2ccccc23)[C@@H](N2CCCCC2)[C@@H]1c1ccccc1 | i | nt
CN1CCC(n2[nH]c(-c3ccccc3)c(Cc3ccccc3)c2=O)CC1 | i | nt
COc1ccc(C2=NOC(C(=O)NC3CCCCC3)C2)cc1OC (stereo not given) | i | >57
Cc1cccc(N2CCN(C(=O)C3CCCN(S(=O)(=O)c4cnc[nH]4)C3)CC2C)c1 (stereo not given) | i | >57
COc1ccc2[nH]c(=O)c(CN(Cc3ccco3)Cc3nnnn3Cc3ccccc3)cc2c1 | i | nt
Brc1ccc(-c2nc3ccccc3s2)s1 | i | ?
CN(C)S(=O)(=O)c1ccc2c(c1)nc(CCC(=O)NCC1CCCCC1)n2C | i | >57
COC(=O)c1ccc(CSc2ncnc3sc(C)c(C)c23)o1 | i | >57
COC(=O)[C@@]1(Cc2ccc(OC)cc2)[C@H]2c3cc(C(=O)N4CCCC4)n(Cc4cc(F)cc5c4OCOC5)c3C[C@H]2CN1C(=O)c1ccccc1 | i | nt
O=S1(=O)c2cccc3cccc(c23)N1Cc1ccc(-c2nnco2)cc1 | i | 1.5*
Cn1c(N2CCC(C(N)=O)CC2)nc2c1c(=O)n(Cc1ccc(Br)cc1)c(=O)n2C | i | >57
O=C1CC(C2CCCO2)C(=O)N1c1cccc(Cl)c1 (stereo not given) | i | nt
c1ccc(Cn2nnc3cnccc32)cc1 | i | >57
CCN(C(=O)COC(=O)C(Cc1ccccc1)N1C(=O)c2ccccc2C1=O)C1CCS(=O)(=O)C1 (stereo not given) | i | >57
Cc1ccc(CNC(=O)CCCn2c(=O)c3ccccc3n(CC(=O)NCc3ccco3)c2=O)cc1 | i | >57
CCOC(=O)C1CCN(Cc2cn[nH]c2-c2ccc(C)cc2)CC1 | i | >57
COC(=O)C1[C@H]2C(=O)N(Cc3cccs3)C[C@]23C=C[C@H]1O3 (stereo not given in full) | i | >57
O=c1c(-c2ccc(Cl)cc2)nc2cnc(Nc3ccccc3)nc2n1C1CC1 | i | nt
CCN1CCN(C(=O)CN(Cc2ccccc2)S(C)(=O)=O)CC1 | i | >57
Oc1c(C(c2cccs2)N2CCOCC2)sc2ncnn12 (stereo not given) | i | nt
COc1cccc(NC(=O)CSc2nnc(-c3cccs3)n2C)c1 | i | >57
CCN1CCN(Cc2c(O)ccc3c(=O)c(-c4ccc(OC)c(OC)c4)c(C(F)(F)F)oc23)CC1 | i | nt
c1ccc2nc(C3=NCCN3)ccc2c1 | i | nt
CCCc1cc(=O)oc2c(C)c(O)c(CN3CCCCC3)cc12 | nt | >26
CCC(=O)Oc1ccc(C(CC)C(CC)c2ccc(OC(=O)CC)cc2)cc1 (stereo not given) | nt | >26
COC(=O)c1cc(NC(=O)C2COc3ccccc3O2)cc(C(=O)OC)c1 (stereo not given) | i | >57

Screens (PubChem)
